High-throughput results: PubChem BioAssay, ICCB-Longwood Screening Facility, Harvard Medical School
GIV Gai3 FP: inhibitors of GIV peptide binding to Galpha-i3, primary screen, biochemical, fluorescence polarization, FITC-GIV GBA peptide, rat Galphai3 | Guanine nucleotide-binding protein G(i) subunit alpha-3 (Rattus norvegicus), P08753 | 90 min; active compounds read low; scaled: aluminum fluoride 0%, vehicle 100% | percent of control (FP), % (test concentration not listed) | 210,000 compounds, 0.42% hits;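 active means replicate mean at 85% of control or lower, very high polarization wells dropped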;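 further: lower values mean more displacement of the GIV peptide from Galpha-i3; wells of about 15 µL received 100 nL stock; the first replicate is given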
Target sequence (P08753 whole entry, looked up): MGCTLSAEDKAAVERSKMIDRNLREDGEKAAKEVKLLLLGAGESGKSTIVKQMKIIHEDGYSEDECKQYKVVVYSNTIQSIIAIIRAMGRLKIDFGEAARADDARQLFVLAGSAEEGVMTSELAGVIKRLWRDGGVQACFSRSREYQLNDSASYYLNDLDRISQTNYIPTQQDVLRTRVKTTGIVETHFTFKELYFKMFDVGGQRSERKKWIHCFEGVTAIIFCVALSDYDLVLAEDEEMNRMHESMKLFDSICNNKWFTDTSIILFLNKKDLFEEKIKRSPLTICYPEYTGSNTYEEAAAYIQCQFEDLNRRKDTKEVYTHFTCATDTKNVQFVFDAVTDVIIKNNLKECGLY
Starred values were filed as active, the others as inactive. An excerpt; count on the stated rates, not on these rows.

Results for CCOc1ccc2nc(SCC(=O)Nc3ncc(C(F)(F)F)cc3Cl)sc2c1 ?
GIV Gai3 FP: 108

Results for Cc1ccc(O)c(NC(=O)c2ccc3ncc4c(=O)n(-c5ccc(Cl)cc5)[nH]c4c3c2)c1 ?
GIV Gai3 FP: 130

What do the screens show for `O=C(CSc1nnc(NC(=O)NC2CCCCC2)s1)Nc1ccc2c(c1)OCO2`?
GIV Gai3 FP: 90

How did CC12c3ccccc3C(C)(c3ccccc31)C1C(=O)N(c3cccc(C(=O)O)c3)C(=O)C12 (configuration not stated) do in these assays?
GIV Gai3 FP: 102

What do the screens show for `CCOC(=O)C1(CC)CC(CSc2nc3ccccc3[nH]2)OC1=O` (configuration not stated)?
GIV Gai3 FP: 104

Results for CC(c1nnc(SCC(=O)Nc2nc3ccccc3s2)n1C)N1C(=O)COc2ccccc21 (configuration not stated) ?
GIV Gai3 FP: 102

How did CCCC(=O)N1CCC2(C1)C(=O)N(C)c1ccccc12 (configuration not stated) do in these assays?
GIV Gai3 FP: 107

Results for COc1cc(C(=O)N2c3ccccc3N3C(c4c(C)c(Cl)c(C)c(Cl)c4C)=NON23)cc(OC)c1OC ?
GIV Gai3 FP: 107

Results for C=CCc1ccc(OCCOc2ccc(-c3nc4sc5c(c4c(=O)[nH]3)CCCC5)cc2)c(OC)c1 ?
GIV Gai3 FP: 105

How did CCN(C(=O)CSc1nc2cc(C(=O)OC)ccc2c(=O)n1CCc1ccc(S(N)(=O)=O)cc1)c1cccc(C)c1 do in these assays?
GIV Gai3 FP: 102

Reprinted from the part before: 2 compounds, followed by the next part.
Results for C=CCc1ccc(OCCOc2ccc(-c3nc4sc5c(c4c(=O)[nH]3)CCCC5)cc2)c(OC)c1 ?
GIV Gai3 FP: 105

How did CCN(C(=O)CSc1nc2cc(C(=O)OC)ccc2c(=O)n1CCc1ccc(S(N)(=O)=O)cc1)c1cccc(C)c1 do in these assays?
GIV Gai3 FP: 102

What do the screens show for `COc1ccc(OC)c(Nc2cc(C(=O)NCc3ccc(F)cc3)c3ccccc3n2)c1`?
GIV Gai3 FP: 109

Results for CCCC1(CCC)NC(=S)N(c2ccc(C)cc2)N1 ?
GIV Gai3 FP: 96

What do the screens show for `CCc1cc(Sc2ccc(NC(=O)c3ccc(OC)cc3)cc2)n2ncnc2n1`?
GIV Gai3 FP: 99

How did Cc1cc2nc(CSc3ccccc3C)cc(=O)n2o1 do in these assays?
GIV Gai3 FP: 101

Results for O=C(O)c1cc(N2C(=O)c3ccc([N+](=O)[O-])c4c([N+](=O)[O-])ccc(c34)C2=O)ccc1Cl ?
GIV Gai3 FP: 109

Results for CC(=O)Nc1ccc(-c2noc(C3CCCN(C(=O)CCc4c[nH]c5ccccc45)C3)n2)cc1 (configuration not stated) ?
GIV Gai3 FP: 101

Results for C=CCNC(=O)C1CC2c3ccccc3C1c1ccccc12 (configuration not stated) ?
GIV Gai3 FP: 107

What do the screens show for `CC1=NS(=O)(=O)N(C)C=C1C(=O)OCc1c(C)noc1C`?
GIV Gai3 FP: 252

Results for COCCNc1ncnc2sc(C(=O)O)c(C)c12 ?
GIV Gai3 FP: 107

Results for Cc1cccc(-c2noc(-c3cn(CC(=O)NC4CCCC4)c4nc(C)ccc4c3=O)n2)c1 ?
GIV Gai3 FP: 131

What do the screens show for `CCn1c2c(c3ccccc31)CN(C(=O)C1CCC1)CC2`?
GIV Gai3 FP: 51*

Results for O=C(CN1C(=O)C2(OCCO2)c2ccccc21)c1ccc(C(F)(F)F)cc1 ?
GIV Gai3 FP: 103

Results for O=C(Cn1cc(/C=c2/sc3nc4ccccc4n3c2=O)c2ccccc21)Nc1ccccc1 ?
GIV Gai3 FP: 108

Results for CCCN1C(=O)/C(=C2\SC(=S)N(NC(=O)c3ccccc3Cl)C2=O)c2ccccc21 ?
GIV Gai3 FP: 101

How did Cc1ccc(C2C3=C(CCCC3=O)N=C3c4ccccc4C(=O)C32)cc1 (configuration not stated) do in these assays?
GIV Gai3 FP: 108

What do the screens show for `CCCOc1ccc(C2C(C(=O)OCC)=CN(Cc3ccc(F)cc3)C=C2C(=O)OCC)cc1OC`?
GIV Gai3 FP: 106

How did CCOC(=O)c1ccc(-n2c(=S)sc3c2nc(=S)n2c4ccccc4[nH]c32)cc1 do in these assays?
GIV Gai3 FP: 105

Results for O=C(c1nc(N2CCCCC2)c2oc3ccccc3c2n1)N1CCc2ccccc21 ?
GIV Gai3 FP: 105

What do the screens show for `COc1ccccc1N1CCN(C(=O)CN(c2cc(Cl)ccc2OC)S(=O)(=O)c2ccc(C)cc2)CC1`?
GIV Gai3 FP: 106

Results for COc1ccccc1N1CCN(C(=O)CN(c2ccc(Br)cc2)S(=O)(=O)c2ccccc2)CC1 ?
GIV Gai3 FP: 106

How did COc1cc(OC)c(NC(=O)COc2cc(C)nc(N3CCCC3)n2)cc1Cl do in these assays?
GIV Gai3 FP: 99

Results for Cc1ccc(N=c2ssc3c2-c2cc(C)cc(C)c2NC3(C)C)cc1 ?
GIV Gai3 FP: 104

What do the screens show for `Cc1cc(C2C(C#N)=C(N)N(c3cccc(C(F)(F)F)c3)C3=C2C(=O)CCC3)c(C)s1` (configuration not stated)?
GIV Gai3 FP: 99

How did Fc1cccc(CNc2nc(-c3nnc(-c4ccccc4)o3)nc3ccccc23)c1 do in these assays?
GIV Gai3 FP: 100

How did Cc1nn(-c2ccc(-c3ccccc3)nn2)c(C)c1S(=O)(=O)N1CCCC(C)C1 (configuration not stated) do in these assays?
GIV Gai3 FP: 102

How did O=[N+]([O-])c1ccc(OC/C=C2/Oc3ccc([N+](=O)[O-])cc3C2N2CCOCC2)cc1 (configuration not stated) do in these assays?
GIV Gai3 FP: 109

How did CC(C)c1ccc(C2Nc3ccc4ncccc4c3C3=C2C(=O)CC(C)(C)C3)cc1 (configuration not stated) do in these assays?
GIV Gai3 FP: 100

How did CN(C)S(=O)(=O)c1ccc(C(=O)Nc2c3c(nn2-c2ccc(F)cc2)CS(=O)(=O)C3)cc1 do in these assays?
GIV Gai3 FP: 108

What do the screens show for `CC(C)c1ccc(C2CC(=O)Nc3c2cnn3-c2nc3ccccc3s2)cc1` (configuration not stated)?
GIV Gai3 FP: 99

Results for Cc1ccc2c(c1)N(Cc1ccccc1)C(C)(C)c1ssc(=Nc3cccc(Cl)c3)c1-2 ?
GIV Gai3 FP: 120

Structural class, the compounds so far containing a CF3 group
Results for CCOc1ccc2nc(SCC(=O)Nc3ncc(C(F)(F)F)cc3Cl)sc2c1 ?
GIV Gai3 FP: 108

Results for O=C(CN1C(=O)C2(OCCO2)c2ccccc21)c1ccc(C(F)(F)F)cc1 ?
GIV Gai3 FP: 103

What do the screens show for `Cc1cc(C2C(C#N)=C(N)N(c3cccc(C(F)(F)F)c3)C3=C2C(=O)CCC3)c(C)s1` (configuration not stated)?
GIV Gai3 FP: 99

(further entries)
How did CC1(C)Cc2c(sc(NC(=S)NC(=O)c3ccccc3)c2C#N)CO1 do in these assays?
GIV Gai3 FP: 108

How did CCc1cc(C2CCCN2C(=O)c2cc(C(C)C)on2)on1 (configuration not stated) do in these assays?
GIV Gai3 FP: 99

How did CCC(=O)Nc1cccc(-c2noc(C3CCCN(C(=O)c4ccc(F)c(Cl)c4)C3)n2)c1 (configuration not stated) do in these assays?
GIV Gai3 FP: 102

How did CCOC(=O)c1[nH]c(C)c(CN(Cc2ccc(C)cc2)C(=O)NC2CCCC2)c1C do in these assays?
GIV Gai3 FP: 102

Results for COc1ccc(Oc2coc3cc(OC(=O)c4ccc(Br)cc4)ccc3c2=O)cc1 ?
GIV Gai3 FP: 98

Results for Cc1ccc(C(=O)OC(CN=C2NS(=O)(=O)c3ccccc32)COc2ccccc2)cc1 (configuration not stated) ?
GIV Gai3 FP: 117

Results for O=C1OC(c2ccc(Cl)cc2)c2ccccc21 (configuration not stated) ?
GIV Gai3 FP: 120

Results for CC12c3ccccc3C(c3ccccc31)C1C(=O)N(c3ccc(F)cc3)C(=O)C12 (configuration not stated) ?
GIV Gai3 FP: 109

How did CCc1ccccc1NC(=O)Nc1ccc(CCc2nc3ccccc3[nH]2)cc1 do in these assays?
GIV Gai3 FP: 103

Results for O=c1/c(=C\c2ccc(Oc3ccc([N+](=O)[O-])cc3[N+](=O)[O-])cc2)sc2nc3ccccc3n12 ?
GIV Gai3 FP: 110

What do the screens show for `O=C1C2C(c3ccc(F)cc3)OC3(C(=O)c4ccccc4C3=O)C2C(=O)N1c1ccccc1C(F)(F)F` (configuration not stated)?
GIV Gai3 FP: 105

What do the screens show for `Cn1c(CN2CCN(C(=O)c3ccc(C(C)(C)C)cc3)CC2)nc2cc(C(=O)N3CCCC3)ccc21`?
GIV Gai3 FP: 103

What do the screens show for `CCN1CCN(c2ccc(Nc3ccnc4ccccc34)cc2)CC1`?
GIV Gai3 FP: 104

Results for COc1ccccc1C1C=C(c2ccc(Br)cc2)Nc2nc3ccccc3n21 (configuration not stated) ?
GIV Gai3 FP: 100

Results for CCc1cc2c(N3CCCC(C(=O)NCCN4CCC(C)CC4)C3)ncnc2s1 (configuration not stated) ?
GIV Gai3 FP: 107

How did CCOc1cc(C2Nc3ccc4ccccc4c3C3=C2C(=O)CC(C)(C)C3)cc(Br)c1O (configuration not stated) do in these assays?
GIV Gai3 FP: 96

What do the screens show for `O=C(CCc1nc(CSc2nc(-c3ccccc3)cs2)no1)Nc1ccc(F)c(Cl)c1`?
GIV Gai3 FP: 106

Results for CCOc1ccc2nc(Nc3nc(C)c(C)c(C)n3)nc(C)c2c1 ?
GIV Gai3 FP: 104

Results for COc1cc(NC(=O)c2ccc3c(=O)n(Cc4ccc(Cl)cc4)c(=S)[nH]c3c2)cc(OC)c1OC ?
GIV Gai3 FP: 103

What do the screens show for `COc1cccc(-n2c(SCC(=O)NCCc3ccc(S(N)(=O)=O)cc3)nc3n[nH]c(C)c3c2=N)c1`?
GIV Gai3 FP: 112

A draw from above in order of SMILES length, smallest number first.
What do the screens show for `CCN1CCN(c2ccc(Nc3ccnc4ccccc34)cc2)CC1`?
GIV Gai3 FP: 104

Results for COc1ccccc1C1C=C(c2ccc(Br)cc2)Nc2nc3ccccc3n21 (configuration not stated) ?
GIV Gai3 FP: 100

What do the screens show for `COc1cccc(-n2c(SCC(=O)NCCc3ccc(S(N)(=O)=O)cc3)nc3n[nH]c(C)c3c2=N)c1`?
GIV Gai3 FP: 112

The list continues:
What do the screens show for `Cc1ccccc1-n1c(=S)sc2c1nc(SCC#N)n1c3ccccc3nc21`?
GIV Gai3 FP: 111

What do the screens show for `COc1ccc2nc(Sc3ccc(C(F)(F)F)cc3[N+](=O)[O-])[nH]c2c1`?
GIV Gai3 FP: 102

What do the screens show for `O=C(CCCCCn1c(=S)[nH]c2ccc(Br)cc2c1=O)NCc1ccc2c(c1)OCO2`?
GIV Gai3 FP: 114

What do the screens show for `COc1cccc(CSc2ccc(S(=O)(=O)N3CCOCC3)cc2C(=O)N2CC(C)CC(C)C2)c1OC` (configuration not stated)?
GIV Gai3 FP: 108

How did CCOC(=O)c1c(NC(=O)CCN2C(=O)c3ccccc3C2=O)sc2c1CCC(C)C2 (configuration not stated) do in these assays?
GIV Gai3 FP: 110

What do the screens show for `CCN1c2ccccc2-c2c(ssc2=S)C1(C)C`?
GIV Gai3 FP: 106

Results for O=C(COC(=O)c1ccccc1N1C(=O)C2CC=CCC2C1=O)c1ccc([N+](=O)[O-])cc1 (configuration not stated) ?
GIV Gai3 FP: 112

What do the screens show for `CCCCOc1ccc(S(=O)(=O)Nc2ccc(Nc3nc(C)cc(NCC)n3)cc2)cc1`?
GIV Gai3 FP: 109

What do the screens show for `Cc1ccnc(N2CCCC(C(=O)N3CCCCC3)C2)n1` (configuration not stated)?
GIV Gai3 FP: 102

Results for CC(C)OCCCNC(=O)c1ccc2c(=O)n(Cc3ccco3)c(SCc3ccc([N+](=O)[O-])cc3)nc2c1 ?
GIV Gai3 FP: 108

3 records drawn at random from those above:
How did CCOC(=O)c1c(NC(=O)CCN2C(=O)c3ccccc3C2=O)sc2c1CCC(C)C2 (configuration not stated) do in these assays?
GIV Gai3 FP: 110

What do the screens show for `CCN1c2ccccc2-c2c(ssc2=S)C1(C)C`?
GIV Gai3 FP: 106

What do the screens show for `O=C(CCCCCn1c(=S)[nH]c2ccc(Br)cc2c1=O)NCc1ccc2c(c1)OCO2`?
GIV Gai3 FP: 114

Next structures follow:
What do the screens show for `COc1ccccc1NC(=O)c1sc2ncnc(N3CCCCC3)c2c1C`?
GIV Gai3 FP: 106

Results for Cn1nc(COCc2ccccc2)c2c1CCN(C(=O)Cc1cccc(F)c1)C2 ?
GIV Gai3 FP: 104

Results for COc1ccc(Cl)cc1S(=O)(=O)N1CCc2ccccc2C1CN1C(=O)c2ccccc2C1=O (configuration not stated) ?
GIV Gai3 FP: 106

How did COc1ccccc1CNc1ccc(C(=O)N2CCN(C(C)=O)CC2)cc1S(=O)(=O)Nc1cccc(C(F)(F)F)c1 do in these assays?
GIV Gai3 FP: 100

Results for CCc1ccc(NC(=O)N2CCN(CCn3c(C(F)(F)F)nc4cccnc43)CC2)cc1 ?
GIV Gai3 FP: 97

How did COc1ccccc1Oc1cc(-c2cccc(C(=O)Nc3ccc(Br)cc3)c2)ncn1 do in these assays?
GIV Gai3 FP: 104

Results for CC(C)OCCCNC(=O)c1ccc2c(=O)n(Cc3ccco3)c(SCC(=O)NC3CCCCC3)nc2c1 ?
GIV Gai3 FP: 107

How did CC1(C)CC(=O)C2=C(C1)N(c1cccc(Br)c1)C(N)=C(C#N)C2c1ccsc1 (configuration not stated) do in these assays?
GIV Gai3 FP: 111

What do the screens show for `O=C(NC1CCCC1)c1cccc(Nc2ncc(-c3cccc(F)c3)cn2)c1`?
GIV Gai3 FP: 105

How did CC1=C(C(=O)OC(C)C)C(c2cccnc2)C(C#N)=C(N)O1 (configuration not stated) do in these assays?
GIV Gai3 FP: 109

What do the screens show for `Cc1nc2c(C)cccn2c(=O)c1NC(=O)CC1CCCCC1`?
GIV Gai3 FP: 101

Results for COc1cc(C2C3=C(CC(C)(C)CC3=O)OC3=C2C(=O)CC(C)(C)C3)cc(OC)c1OCc1ccc(Cl)c(Cl)c1 ?
GIV Gai3 FP: 110

Results for C=CCOc1ccc(C2CC(=O)Nc3c2c(C)nn3-c2nc3ccc(OC)cc3s2)cc1OC (configuration not stated) ?
GIV Gai3 FP: 103
